Bioassay records from PubChem BioAssay.
Sfp PPTase inh = Sfp phosphopantetheinyl transferase inhibition. Potency, µM, for inactives: max response, negative = inhibition, usual class: inhibitors. Biochemical Sfp PPTase activity, qHTS. actives 3.5% (n = 310,000). Q9F4F7; active = well fitted inhibition curve with a large enough effect; inconclusive = small, poorly fitted or top-dose-only effect, or another doubt; inactive = no such curve, though single readings can be large or run the other way;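 note: the enzyme is Sfp with the accession as filed and its product quenches rhodamine fluorescence; potency is the fitted concentration of half-maximal effect; 0% = enzyme reaction without inhibitor and -100% = no enzyme wells; top concentration of the series not given in the record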
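Fluorescence-quenching assay: 15 nM Sfp-PPTase preincubated 15 min at room temperature with compound, then 5 uM rhodamine-CoA and 12.5 uM BHQ-2-labelled YbbR peptide added. Fluorescence (ex 525/em 598 nm) read at start and after 30 min; difference gives rate.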
D2 PAM = human D2 receptor positive allosteric modulation; P14416; DiscoveRx D2 beta-arrestin cells, luminescence, 90 min; 100% = 57 uM dopamine signal; potentiation, % (test concentration not listed); actives 0.23% (n = 360,000); active = potentiation of 50% or more; inconclusive = 30% to 50%; inactive = 30% or less;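 note: compound concentration not given in the record; tested on top of an EC20 dose of dopamine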
Target sequence (P14416 whole entry, looked up): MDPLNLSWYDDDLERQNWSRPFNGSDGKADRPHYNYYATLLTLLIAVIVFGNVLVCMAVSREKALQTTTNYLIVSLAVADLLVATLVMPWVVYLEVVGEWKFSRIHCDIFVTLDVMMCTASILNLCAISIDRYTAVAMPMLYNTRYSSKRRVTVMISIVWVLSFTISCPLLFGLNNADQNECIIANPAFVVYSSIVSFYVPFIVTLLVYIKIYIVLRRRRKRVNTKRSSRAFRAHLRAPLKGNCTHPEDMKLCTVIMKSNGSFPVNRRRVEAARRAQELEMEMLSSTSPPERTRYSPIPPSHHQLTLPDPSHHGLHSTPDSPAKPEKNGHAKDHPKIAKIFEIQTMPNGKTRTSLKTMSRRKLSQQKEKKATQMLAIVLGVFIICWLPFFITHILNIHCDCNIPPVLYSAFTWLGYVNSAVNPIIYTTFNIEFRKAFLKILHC
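PathHunter D2 cells, attached overnight at 37 deg C, received compound in DMSO plus dopamine at EC20 (50 nM final) for 90 min at 37 deg C. Beta-arrestin recruitment was read as luminescence after 1 h with detection reagent at ambient temperature.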
TRPV1 potentiator = human TRPV1 potentiation; TRPV1-expressing cells, Fluo-8 calcium influx, capsaicin EC20 potentiation; host cell line not named in the record; control for the full effect not named in the record; potentiation, % at 8.33 µM; actives 0.02% (n = 320,000); active means potentiation above 80%; inconclusive means 30% to 80%; inactive means below 30%; note: 0% is about no effect
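TRPV1-expressing cells were cultured overnight at 35.5C and loaded with Fluo-8 calcium dye for 40 to 90 min at room temperature. After a 10 s baseline, compound was added and calcium influx was read kinetically for 3 min (ex 480/em 520 nm).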
CtBP-E1A inh = blocks the CtBP interaction with E1A | AlphaScreen GST-E1A/His-CtBP binding, 1536-well; active compounds read low; control for the full effect not named in the record | activity change, % (no concentration beside the values) | actives 0.49% (n = 340,000); in the data active means activity change below about -65%; inconclusive means about -30% to -65%; inactive means above about -30%; note: % is set by controls: 0 for no effect and ±100 for the full control effect
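In 5 uL wells, 23 nL compound meets equimolar GST-E1A and His-CtBP (5X stock 125 nM each) for 2 h, 37 °C. Beads (5X, 50 ug/mL) then 1 h, 37 °C, dark.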
D2 agonist = agonists of human D2 dopamine receptor (beta-arrestin); AID 624465; P14416; actives 0.084% (n = 360,000); DiscoveRx PathHunter D2 beta-arrestin, luminescence, 90 min; 100% = 57 uM dopamine signal; activation, % (test concentration not listed); in the data active = activation above about 40%; inconclusive = about 15% to 40%; inactive = below about 15%; note: compound concentration not given in the record; the text of the record calls up to 30% inactive
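Agonist mode: compounds alone added to overnight-plated D2 PathHunter cells for 90 min at 37 C, with 57 uM final dopamine (EC100) defining full response. Beta-arrestin recruitment detected by chemiluminescent reagent, read after 1 h at ambient temperature.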
PINK1 expr mod = PINK1 expression modulation | PINK1 immunofluorescence, high-content cytometry, 24 h | Potency, µM (top dose mostly 76.6 µM), for the others: at the top dose activation (PINK1 increase), actives largely listed as activators | actives 0.2% (n = 410,000) | AID 624263; active = well fitted activation curve with a large enough effect; inconclusive = small, poorly fitted or top-dose-only effect; inactive = flat fitted curve, though single readings scatter; cell line not stated here;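 note: potency is the fitted concentration of half-maximal effect; % of control where 0% means no effect; nearly all actives have a fitted effect of over 65% in size; a mitochondrial uncoupler was the plate control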
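PINK1 protein, normally rapidly degraded, was detected by immunofluorescence after 24 hour compound treatment of a stable cell line. Titration data (5 concentrations) came from laser-scanning cytometry, with CCCP-treated wells as controls.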
Six1-Eya2 blk = Six1/Eya2 interaction inhibition; Q15475+O00167; AID 651725; actives 0.56% (n = 360,000); activity change, % (no concentration beside the values); AlphaScreen GST-Six1/His-Eya2 binding, biochemical; active compounds read low; control for the full effect not named in the record; in the data active = activity change below about -65%; inconclusive = about -30% to -65%; inactive = above about -30%; note: % is set by controls: 0 for no effect and ±100 for the full control effect
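AlphaScreen luminescence read after one hour at 37 °C in darkness. Pin-transferred compounds met GST-Six1 and His-Eya2 protein (5X stock 250 nM/500 nM) plus glutathione donor and Ni-chelate acceptor beads (5X, 50 ug/mL).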
The depositor's hits bear a star; [ ] = dose if it differs, or a comment.

Screening COCCCNC(=O)C(CC(N)=O)NC(=O)OCc1ccccc1 (stereo not drawn) returned Sfp PPTase inh 5%, D2 PAM 1, TRPV1 potentiator 8, CtBP-E1A inh 4, D2 agonist -2.7, PINK1 expr mod 1.1% and Six1-Eya2 blk 17.
For CCOC(=O)C1=C(C)NC(C)=C(C(=O)OCC)C1C(=O)OCC(=O)NCc1ccco1 the results were D2 PAM 5, CtBP-E1A inh 0, D2 agonist 0.5, PINK1 expr mod 1.6% and Six1-Eya2 blk 6.
`COc1ccc(Cl)cc1S(=O)(=O)N1CCN(CC(=O)C(C)(C)C)CC1` gave Sfp PPTase inh 8%, D2 PAM -16, TRPV1 potentiator -10, CtBP-E1A inh 6, D2 agonist -2.3, PINK1 expr mod 0.4% and Six1-Eya2 blk -9.
CSc1nc(N)c2c3c(sc2n1)COC(C(C)C)C3 (stereo not drawn) was read as Sfp PPTase inh 12%, D2 PAM 0, TRPV1 potentiator 0, CtBP-E1A inh 1, D2 agonist 1.0, PINK1 expr mod 0.3% and Six1-Eya2 blk 0.
For CCOC(=O)c1ccc2ncc(C(=O)OCC)c(NCCCN3CCOCC3)c2c1 the results were Sfp PPTase inh 23%, D2 PAM -10, TRPV1 potentiator -2, CtBP-E1A inh 6, D2 agonist -0.7 and Six1-Eya2 blk 1.
CCN(CC)CCNC(=O)c1cn(-c2ccccc2)nc1-c1cccs1 was read as Sfp PPTase inh 4%, D2 PAM -17, TRPV1 potentiator -7, CtBP-E1A inh -2, D2 agonist -1.0, PINK1 expr mod 1.7% and Six1-Eya2 blk -5.
CCCN(C(=O)COC(=O)CNS(=O)(=O)c1ccc(NC(C)=O)cc1)C1CCS(=O)(=O)C1 (stereo not drawn) was read as D2 PAM -2, CtBP-E1A inh 1, D2 agonist 7.8, PINK1 expr mod -1.2% and Six1-Eya2 blk 4.
CCOC(=O)C1(Cc2ccc(OC)cc2)CCN(C(=O)c2cncs2)CC1 was read as Sfp PPTase inh -6%, D2 PAM 2, TRPV1 potentiator -20, CtBP-E1A inh 9, D2 agonist 2.6, PINK1 expr mod 0.1% and Six1-Eya2 blk -2.
For CCCN1CCN(CCCNC(=O)Cn2nc(-c3ccccc3)ccc2=O)CC1 the results were Sfp PPTase inh 9%, D2 PAM -8, TRPV1 potentiator -2, CtBP-E1A inh 5, D2 agonist 0.2 and Six1-Eya2 blk -1.
Screening Cc1ccc(Cn2nnc3c(=O)n(CC(=O)NCC4CCCO4)cnc32)cc1 (stereo not drawn) returned Sfp PPTase inh 6%, D2 PAM 2, CtBP-E1A inh -3, D2 agonist -3.3, PINK1 expr mod 6.5%[38.3 µM] and Six1-Eya2 blk 1.

Compounds from the list above containing a thiophene ring, fused or not (2):
CSc1nc(N)c2c3c(sc2n1)COC(C(C)C)C3 (stereo not drawn) was read as Sfp PPTase inh 12%, D2 PAM 0, TRPV1 potentiator 0, CtBP-E1A inh 1, D2 agonist 1.0, PINK1 expr mod 0.3% and Six1-Eya2 blk 0.
CCN(CC)CCNC(=O)c1cn(-c2ccccc2)nc1-c1cccs1 was read as Sfp PPTase inh 4%, D2 PAM -17, TRPV1 potentiator -7, CtBP-E1A inh -2, D2 agonist -1.0, PINK1 expr mod 1.7% and Six1-Eya2 blk -5.

(continued)
For COc1ccc(OCCSc2nc3ccccc3c(=O)[nH]2)cc1 the results were Sfp PPTase inh 15%, D2 PAM -6, TRPV1 potentiator 10, CtBP-E1A inh -7, D2 agonist 1.7, PINK1 expr mod 19%[38.3 µM] and Six1-Eya2 blk -9.
`O=C1C=CC(=O)N1c1ccccn1` gave D2 PAM -7, CtBP-E1A inh -1, D2 agonist 3.6, PINK1 expr mod 3.3% and Six1-Eya2 blk 7.
CCOc1ccccc1Nc1cc2n(c(=O)n1)CCc1cc(OC)c(OC)cc1-2 was read as Sfp PPTase inh -10%, D2 PAM -1, TRPV1 potentiator -3, CtBP-E1A inh inconclusive, D2 agonist 3.2, PINK1 expr mod 1.5% and Six1-Eya2 blk inconclusive.
For COc1ccc(-c2cc(C(F)(F)F)nc(-n3cc(Cl)cn3)n2)cc1 the results were Sfp PPTase inh inconclusive, D2 PAM -2, TRPV1 potentiator -18, CtBP-E1A inh 0, D2 agonist -2.0, PINK1 expr mod 4.7% and Six1-Eya2 blk 13.
`CCOC(=O)c1ccccc1NC(=O)C(C)Oc1ccccc1` (stereo not drawn) gave Sfp PPTase inh -10%, D2 PAM -18, TRPV1 potentiator -18, CtBP-E1A inh 33, D2 agonist -1.0, PINK1 expr mod 0.0% and Six1-Eya2 blk 44.
`CC(C)c1c(O)nc(SCc2ccccc2)[nH]c1=O` gave Sfp PPTase inh 5%, D2 PAM 1, TRPV1 potentiator 8, CtBP-E1A inh 6, D2 agonist 0.2, PINK1 expr mod -1.4% and Six1-Eya2 blk 0.
`Cc1ccc(S(=O)(=O)N(C)CC(=O)N2CCCCCC2)cc1` gave Sfp PPTase inh 7%, D2 PAM 5, TRPV1 potentiator -10, D2 agonist 4.7, PINK1 expr mod 4.6% and Six1-Eya2 blk -1.
`COc1ccc(NC(=O)COC(=O)c2ccc(OC)c(S(=O)(=O)N3CCCC3)c2)cc1OC` gave D2 PAM 6, TRPV1 potentiator -3, CtBP-E1A inh 3, D2 agonist 0.9, PINK1 expr mod 3.2% and Six1-Eya2 blk -4.
`CCC(CC)C(=O)N(C)c1c(C)nc2c(OCc3ccc(Cl)cc3Cl)cccn12` gave D2 PAM -8, CtBP-E1A inh -9, D2 agonist 1.3, PINK1 expr mod 3.3% and Six1-Eya2 blk -19.
Screening CCc1ccccc1NS(=O)(=O)c1cccc2nsnc12 returned Sfp PPTase inh 4%, D2 PAM 7, TRPV1 potentiator inconclusive, CtBP-E1A inh -4, D2 agonist -5.2, PINK1 expr mod -0.5% and Six1-Eya2 blk 0.
Cc1ccc(C(=O)N2CCN(c3ccccc3)CC2)cc1NC(=O)c1ccco1 was read as Sfp PPTase inh 2%, D2 PAM -6, TRPV1 potentiator 1, CtBP-E1A inh -1, D2 agonist 0.0, PINK1 expr mod 0.1% and Six1-Eya2 blk -2.
COc1ccc(CCNC(=O)COc2ccc3c(C)cc(=O)oc3c2)cc1 was read as D2 PAM 7, CtBP-E1A inh 6, D2 agonist 1.4, PINK1 expr mod 0.9% and Six1-Eya2 blk 5.
Screening COc1ccc2c(CC(=O)Nc3nc(C)cs3)coc2c1 returned Sfp PPTase inh 7%, D2 PAM 0, TRPV1 potentiator 7, CtBP-E1A inh -1, D2 agonist 2.4, PINK1 expr mod 4.6% and Six1-Eya2 blk -1.
Cc1ccc(C(=O)NC2CCCC2)cc1S(=O)(=O)N1CCCCC1 was read as Sfp PPTase inh 0%, D2 PAM -13, TRPV1 potentiator 13, CtBP-E1A inh 9, D2 agonist 5.9, PINK1 expr mod 1.2% and Six1-Eya2 blk 6.
CCOC1C(=O)NC(=O)N1Cc1ccccc1 (stereo not drawn) was read as Sfp PPTase inh 5%, D2 PAM -6, TRPV1 potentiator -7, CtBP-E1A inh 1, D2 agonist -0.6, PINK1 expr mod 1.7% and Six1-Eya2 blk 4.
For CCOP(=O)(OCC)/C(=N/OC(=O)c1ccc(OC)cc1)C(N)=O the results were Sfp PPTase inh 12%, D2 PAM -14, TRPV1 potentiator 10, CtBP-E1A inh 4, D2 agonist -5.2, PINK1 expr mod -0.4% and Six1-Eya2 blk -1.
`C[N+]1(CCC(=O)c2ccccc2)CCCCC1` gave Sfp PPTase inh 14%, D2 PAM 5, TRPV1 potentiator 3, CtBP-E1A inh 6, D2 agonist -2.1, PINK1 expr mod 1.7% and Six1-Eya2 blk 1.
For O=C(O)COc1ccccc1/C=N/NC(=O)CNC(=O)c1ccco1 the results were Sfp PPTase inh -9%, D2 PAM -10, TRPV1 potentiator 14, CtBP-E1A inh 4, D2 agonist -6.0, PINK1 expr mod 0.6% and Six1-Eya2 blk 3.
O=C(NCC1CCCO1)C(c1ccncc1)N(Cc1cccs1)C(=O)Cn1nnc(-c2ccc(F)cc2)n1 (stereo not drawn) was read as Sfp PPTase inh 4%, D2 PAM -2, TRPV1 potentiator 2, CtBP-E1A inh 0, D2 agonist -0.9, PINK1 expr mod -0.3% and Six1-Eya2 blk -2.
For COc1cc(C(C(=O)Nc2c(C)cccc2C)N(C)C(=O)c2ccc(-n3cnnn3)cc2)ccc1O (stereo not drawn) the results were Sfp PPTase inh 15%, D2 PAM 2, TRPV1 potentiator 8, CtBP-E1A inh 0, D2 agonist 2.3, PINK1 expr mod -2.3% and Six1-Eya2 blk 18.
For COc1ccc(S(=O)(=O)N2Cc3ccccc3CC2C(=O)Nc2ccc3c(c2)OCO3)cc1 (stereo not drawn) the results were Sfp PPTase inh 12%, D2 PAM 1, TRPV1 potentiator 3, CtBP-E1A inh -17, D2 agonist 0.0, PINK1 expr mod 0.2% and Six1-Eya2 blk -7.
CN1CCN(C(=O)c2cn(-c3ccccc3)nc2-c2cccs2)CC1 was read as Sfp PPTase inh 10%, D2 PAM -7, TRPV1 potentiator -2, D2 agonist -3.7, PINK1 expr mod 3.3% and Six1-Eya2 blk -2.
`CC(C)C[C@@H](CN1C(=O)C(=O)NC[C@@H]1CC(C)C)NC(=O)Cc1ccccc1` gave D2 PAM -11, CtBP-E1A inh 7, D2 agonist -0.3, PINK1 expr mod 0.8% and Six1-Eya2 blk 1.
For Fc1ccc(CCN2CCN=C2Nc2ccccc2)cc1 the results were D2 PAM -22, TRPV1 potentiator -24, CtBP-E1A inh 4, D2 agonist -0.8, PINK1 expr mod 3.3% and Six1-Eya2 blk 8.
For CC1(C)Cc2c(cnn2-c2ccc(F)cc2)C(NC(=O)c2ccoc2)C1 (stereo not drawn) the results were Sfp PPTase inh 9%, D2 PAM -5, TRPV1 potentiator -22, CtBP-E1A inh 2, D2 agonist 1.8, PINK1 expr mod -0.6% and Six1-Eya2 blk -1.
O=C(NC(CC1CCCCC1)C(=O)O)c1ccccc1 (stereo not drawn) was read as D2 PAM -4, TRPV1 potentiator 3, CtBP-E1A inh -21, D2 agonist -3.2, PINK1 expr mod 0.3% and Six1-Eya2 blk 10.
CC(NC(=O)c1ccc(N(C)C)cc1)C(c1cccs1)N1CCN(C)CC1 (stereo not drawn) was read as Sfp PPTase inh 11%, D2 PAM -10, TRPV1 potentiator inconclusive, CtBP-E1A inh 10, D2 agonist -0.9, PINK1 expr mod -2.0%[38.3 µM] and Six1-Eya2 blk -2.
